RN4220 kill: kills Staphylococcus aureus RN4220 | S. aureus RN4220 growth, OD600, 16 h | inhibition, % (concentration not given with the values) | AID 1259311 | 330,000 tested, 0.33% active;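 active = z-score of -3 or lower and OD600 up to 0.18 on both plates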;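 note: plate controls were untreated cells for no effect and reference antibiotic for full effect; stock transfer was 100 nL into about 80 µL; one replicate is shown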
BJeLR lethal: kills HRASV12-expressing BJeLR cells. BJeLR (HRASV12) viability, CellTiter-Glo ATP luminescence, 48 h; reference of the scale not given here. AID 1554. 300,000 tested, 0.17% active. inhibition, % (concentration not given with the values);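 active = replicate mean above 50%; inconclusive = above 50% but judged a plate artefact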;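 note: 50 nL library stock added to about 25 µL; numbers are from one replicate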
Mtb hypoxia rep: reduces hypoxia-regulated biosensor signal in M. tuberculosis | AID 1159583 | fluorescence inhibition, % (concentration not given with the values) | 300,000 tested, 0.1% active | M. tuberculosis hypoxia-regulated fluorescent reporter, fluorescence;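 active = 35 to 45% if threefold the growth effect, above 45% if 1.5-fold the growth effect; inactive = the rest, general growth blockers included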;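 note: wells of about 50 µL received 100 nL stock; 0% = vehicle wells and 100% = reference inhibitor wells; whole bacteria with a GFP reporter of the hypoxia response; strong numbers were not always called active; many hits fall short of the cut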
Sa ugtP lethal: kills S. aureus RN4220 lacking UgtP; growth inhibition, % (test concentration not listed); S. aureus RN4220 ugtP deletion, OD600 growth, 16 h; some inactives read as strong as hits; AID 1259309; 330,000 tested, 0.54% active;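 active = z-score under -3 and OD600 up to 0.15 on both plates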;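 note: plate controls were untreated wells for no effect and antibiotic for full effect; wells of about 80 µL received 100 nL stock; the first replicate is given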
Bead autofluor: flagged as autofluorescent in microsphere protease counterscreen; AID 624483; 360,000 tested, 3.1% active; fluorescence intensity (no concentration beside the values); compound autofluorescence counterscreen, microsphere flow cytometry; active compounds read high;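 active = at least 3 SD above the mean of all compounds, about 16000 in these data; inconclusive = too few beads counted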;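 note: 100 nL of 1 mM stock went into each well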
PrP 5UTR inh: inhibition of PrP 5' UTR reporter expression. cell-based PrP 5' UTR mRNA reporter, plate reader. inhibition, % (concentration not given with the values). 340,000 tested, 0.35% active;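 active = every replicate at 50% or more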;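 note: 0 = median of the neutral control wells; tested in H4 reporter cells; numbers are from one replicate; inactives centre near -14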
Mtb hypoxia rep growth: further read-out of Mtb hypoxia rep, marked with its call; growth inhibition, %; measured here: M. tuberculosis growth (absorbance);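 0% = vehicle and 100% = reference antibiotic; read after six days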
Starred values were filed as active, the others as inactive; ? = inconclusive; · = not tested or not shown. An unsorted share of the library; about 4% have a hit in one of these screens.

Compound	RN4220 kill	BJeLR lethal	Mtb hypoxia rep	Mtb hypoxia rep growth	Sa ugtP lethal	Bead autofluor	PrP 5UTR inh
O=C(Nc1cccc2ncccc12)c1cc2ccccc2o1	6.4	1	1	2	-5	3148	-9
Cc1c(C(=O)N2CCOCC2)oc2ccccc12	2.5	·	9	6	4	6396	-4
Cn1c(CNC(=O)c2ccc(Cl)cc2)nnc1SCC(=O)Nc1sc2c(c1C#N)CCCC2	11	1	7	12	3	8832	-37
CCN(CC)CCn1c2c(c(SCC(=O)Nc3ccccc3Cl)nc1=O)CCCC2	2.4	3	10	3	11	4907	-17
COc1ccc(NC(=O)Nc2cccc3ccccc23)c(OC)c1	0.2	-9	13	2	-3	6080	-43
FC(F)(F)c1cccc(N2CCC(N=CN3CCCCCC3)=N2)c1	1.0	9	5	5	-3	4229	-30
CCOC(=O)c1cnc2ccc(C)cc2c1Sc1ccc(F)cc1	-0.6	-8	·	·	22	5659	-42
COc1cccc(CNCc2cccc(Br)c2)c1OC	4.0	6	7	7	-4	3935	-7
Cc1cccc(OCC(=O)N2CCC3(CC2)CC(=O)c2ccccc2O3)c1	-1.2	0	8	11	10	?	-11
CCCCS(=O)(=O)Nc1ccc(Cc2ccncc2)cc1	0.9	12	25	27	1	6249	-30
Nc1ccc(S(=O)(=O)c2ccc(N)nc2)cc1	2.4	·	8	14	2	3472	·
CCS(=O)(=O)N1CCc2nc(-c3ccccc3)sc2C1	-0.1	0	12	3	-7	4135	-57

(further entries)
Compound	RN4220 kill	BJeLR lethal	Mtb hypoxia rep	Mtb hypoxia rep growth	Sa ugtP lethal	Bead autofluor	PrP 5UTR inh
COc1cccc(/C=N/NC(=O)c2cccs2)c1	·	1	·	·	·	6421	-53
CC(=O)c1cn(-c2ccc(Cl)cc2)c(=O)n(Cc2ccc(F)cc2)c1=O	-1.7	-7	8	1	-3	4915	-7
CC(OC(=O)CCCC(=O)Nc1ccc(F)cc1)C(=O)c1ccccc1 (configuration not stated)	3.0	4	7	1	7	5357	-27
CC(=O)c1ccc(NC(=O)Nc2ccc([N+](=O)[O-])cc2C)cc1	-8.2	13	1	4	-3	2520	-14
CCC1=C(OC(=O)N(CC)CC)N2C(=O)OC(=NCCc3c[nH]c4ccccc34)[C@]2(Cc2ccccc2)C2C1=CCC1C(=O)N(C)C(=O)C12 (some centres not stated)	2.1	·	6	-8	-3	·	·
COc1ccccc1NC(=O)C1CCC(CNc2c(N3CCCCC3)c(=O)c2=O)CC1 (configuration not stated)	2.0	0	5	12	-5	4590	-16
Cc1ccccc1C(=O)NNC(=O)Cc1ccccc1	-4.8	-5	-5	6	-7	7322	-22
CCCCn1c(N)c(N(CCC(C)C)C(=O)CSc2nnc(C)s2)c(=O)[nH]c1=O	0.9	-6	3	6	1	6009	-3
Clc1ccc(-c2nnc(SCc3nc4ccccc4s3)o2)cc1	8.8	-3	4	3	1	2527	-42
O=C(c1nnc(-c2ccncc2)o1)c1ccccc1Cl	1.3	1	13	10	9	10209	-13
CC(=O)N1CCc2cc(S(=O)(=O)NCCCOC(C)C)ccc21	-1.7	3	·	·	4	4829	-3
O=[N+]([O-])c1ccc(NCc2ccc(Cl)cc2)nc1	-1.1	7	4	10	-5	3148	-51

(next part)
Compound	RN4220 kill	BJeLR lethal	Mtb hypoxia rep	Mtb hypoxia rep growth	Sa ugtP lethal	Bead autofluor	PrP 5UTR inh
O=C(NCCS(=O)(=O)c1ccc(Br)cc1)c1ccc(Cl)cc1	1.3	-6	4	-5	-4	?	-2
Cc1ccc(NC2CCCN(C(=O)c3cc(C(C)C)[nH]n3)C2)cc1C (configuration not stated)	1.4	-7	5	4	5	7045	-9
Cc1cc(NCc2ccccn2)n2nc(C)c(-c3ccc(Cl)cc3)c2n1	1.1	2	-3	7	-18	6751	-17
CC(C)c1nc2sc3c(=O)[nH]c(=S)[nH]c3c2c2c1CCCC2	50	-2	-4	8	53	4266	-20
CCOc1ccccc1C(=O)NCC(=O)OCC(=O)c1ccc2c(c1)OCCO2	2.9	-3	·	·	5	·	0
COc1ccc(CC(NC(C)=O)C(=O)NC2CCN(C(=O)NCc3ccccc3)CC2)cc1OC (configuration not stated)	3.0	·	3	3	9	9870	-9
COCCNC(=O)CN1CCCCCC1	3.4	-4	11	4	-4	4459	-1
CC(C)(C)NC(=O)CSCc1ccc(Br)cc1	4.2	-8	-2	2	5	3988	4
Cc1nn(CC#N)c(=O)n1-c1cccc(F)c1	0.1	-1	·	·	5	2790	-6
Cc1ccc(S(=O)(=O)Nc2cccc(C(=O)NCC(c3ccco3)N3CCCCC3)c2)cc1F (configuration not stated)	3.0	2	4	4	13	6853	-36
COc1ccc(C(=O)COC(=O)c2ccc(NC(C)=O)cc2)cc1[N+](=O)[O-]	-2.2	1	·	·	-8	4529	-33
Cn1nc([N+](=O)[O-])c(C(C#N)c2nc3ccccc3n2C)c(Cl)c1=O (configuration not stated)	12	-8	11	4	11	2692	-11

(list continues)
Compound	RN4220 kill	BJeLR lethal	Mtb hypoxia rep	Mtb hypoxia rep growth	Sa ugtP lethal	Bead autofluor	PrP 5UTR inh
CSc1nnc(-c2sccc2-n2cccc2)o1	14	6	19	12	-3	4405	-44
O=c1[nH]ncc(N/N=C\c2ccc(O)cc2O)c1Cl	·	-3	·	·	·	2333	-12
Cc1nonc1NCn1nnc2ccccc21	3.3	-9	·	·	7	2335	2
CC(=O)OCC(=O)C1(O)CCC2C3CCC4C(OC(C)=O)C(=O)CCC4(C)C3C(=O)CC21C (configuration not stated)	5.0	·	10	7	3	4119	-14
CCN(CC)CCCNC(=O)c1cn(CC(C)C)c(=O)c2c1c1ccccc1n2C	2.7	-2	-1	10	9	3683	-17
COc1cc(/C=C(\C#N)c2ccccn2)ccc1OCc1ccccc1Cl	24	·	-1	5	0	10523	-25
Cc1ccc(/C(N)=N/OC(=O)CCc2ccccc2)cc1	4.9	4	17	4	19	5989	-37
COc1ccc(-c2c(C(F)(F)F)oc3cc(OCC(=O)Nc4ccccc4C(F)(F)F)ccc3c2=O)cc1OC	2.9	13	10	8	-7	2587	-9
COc1ccc(N2CCN(c3nc(Cl)nc(N4CCOCC4)n3)CC2)cc1	2.2	-6	-11	4	5	2408	-17
Cc1cc(C(=O)OCC(=O)NCc2ccco2)c(C)o1	2.9	·	4	3	18	3207	-17
Cc1ccc(NC(=O)CN(C)C(=O)CSc2n[nH]c(N)n2)cc1	1.0	-14	14	-2	1	15735	0
CCOC(=O)C1CCCN(S(=O)(=O)c2cccc3cccnc23)C1 (configuration not stated)	-0.9	-21	4	3	1	?	-26

Continued:
Compound	RN4220 kill	BJeLR lethal	Mtb hypoxia rep	Mtb hypoxia rep growth	Sa ugtP lethal	Bead autofluor	PrP 5UTR inh
Cc1cccc(C)c1NC(=S)NCCc1ccccn1	-0.5	-4	6	0	5	2105	-8
COc1cc(C(=O)N(Cc2ccccn2)CC2CCCO2)cc(OC)c1OC (configuration not stated)	-4.2	0	-6	-3	-1	21493*	-1
C=CCn1c(O)c(C=Nc2ccccc2)sc1=S	2.0	3	5	0	4	4569	-44
COc1ccc(C)cc1N1CC(C(=O)Nc2ccccc2C(=O)NC2CC2)CC1=O (configuration not stated)	2.4	·	5	12	0	8322	-10
COc1ccc(C2CC(c3cccs3)=NN2S(C)(=O)=O)cc1 (configuration not stated)	5.8	-6	-9	3	4	5672	-11
Cc1ccc(C(=O)Nc2nc3ccc(Cl)cc3s2)o1	8.9	9	14	13	-9	4050	-73
CC(=O)Nc1ccc(NC(=O)CSc2nc(N)c(NC(=O)c3ccccc3F)c(=O)[nH]2)cc1	3.0	10	3	8	3	5572	-22
CC(C)Cn1c(N)c(C(=O)COC(=O)c2cc(C(F)(F)F)nc3ccccc23)c(=O)n(C)c1=O	4.0	·	3	5	-43	·	·
Cc1oc(-c2ccc(Cl)cc2)cc1C(=O)/C(C#N)=C/Nc1cccc(OC(F)(F)F)c1	·	-3	·	·	·	5426	-11
CCC(C)C1NC(=O)C(C(C)=O)=C1O (configuration not stated)	-0.5	11	·	·	-5	4172	-9
Cc1ccc(O)c(C(=O)/C=C/c2ccc3c(c2)OCCO3)c1	·	-7	·	·	·	4264	-46
CCN(C(=O)COC(=O)/C=C/c1ccc(S(=O)(=O)N2CCc3ccccc32)cc1)C1CCS(=O)(=O)C1 (configuration not stated)	5.2	6	0	-13	2	3592	-26

(more compounds)
Compound	RN4220 kill	BJeLR lethal	Mtb hypoxia rep	Mtb hypoxia rep growth	Sa ugtP lethal	Bead autofluor	PrP 5UTR inh
COc1ccc(Cl)cc1NC(=O)c1cc(-c2ccccc2O)n[nH]1	-8.0	2	14	2	-18	2565	-20
COc1ccc(C2/C=C\CN(C(=O)CC(C)(C)C)CC(=O)N2Cc2ccc(F)cc2)cc1 (configuration not stated)	·	-1	·	·	·	3106	-14
CCS(=O)(=O)N1CCN(C2Cc3ccccc3C2)CC1	5.0	·	8	9	0	22089*	-18
COc1cc(C=Nn2c(-c3cc(C)[nH]n3)n[nH]c2=S)cc(OC)c1O	2.7	·	17	-3	13	·	·
CCCCCNCc1cccc(Br)c1	2.6	7	6	13	-9	6485	-21
O=C(COC(=O)/C=C/c1ccco1)Nc1ncc(Cl)cc1Cl	6.6	3	-4	7	0	3414	-12
Cc1nn(Cc2ccccc2)c(Cl)c1/C=C/C(=O)OCC(=O)N(C)C1CCS(=O)(=O)C1 (configuration not stated)	6.2	6	8	-4	5	4704	-12
CCN(CC)c1ccc(C=NNC(=O)Cc2ccc(OC)c(OC)c2)cc1	4.0	·	6	4	9	·	·
CCCCCCCCc1nc(SCC(C)=O)n[nH]1	4.8	6	18	8	9	3935	-26
C=CCc1c(C)nc(SC)nc1Nc1ccc(C)cc1	0.8	5	-4	3	0	5135	-1
O=C(COc1c(Br)cc(Br)c2cccnc12)N1CCCCC1	-7.5	-2	9	-2	5	3819	-28
O=C(Nc1ccc(S(=O)(=O)Nc2ncccn2)cc1)c1ccc(Br)o1	-0.1	1	22	8	9	3873	-29

Next section
Compound	RN4220 kill	BJeLR lethal	Mtb hypoxia rep	Mtb hypoxia rep growth	Sa ugtP lethal	Bead autofluor	PrP 5UTR inh
Nc1nc(-c2ccc3ccccc3c2)cs1	6.9	-2	16	-4	-80	4284	-156
CCc1ccc(NC(=O)C2CC(=O)Nc3ncnn32)cc1 (configuration not stated)	·	-2	·	·	·	1953	-11
COc1ccc(NC(=S)N(CCc2c(C)[nH]c3ccc(C)cc23)Cc2cccs2)cc1	3.0	-18	-6	-5	-1	6184	-7
C=CCNC(=O)C1CCCN(S(C)(=O)=O)C1 (configuration not stated)	-0.6	-9	2	0	2	6706	-26
CCOc1ccccc1C(=O)N(CCC(=O)OC)c1ccccn1	1.2	11	-1	6	0	4819	-12
CCOC(=O)c1sc(-c2ccc(Cl)cc2Cl)nc1O	65	7	3	3	32	5199	-15
COC(=O)c1cc(Br)c(=O)n(-c2ccccn2)c1	4.3	-6	·	·	4	3764	9
CCNC(=O)CSc1nnc(C2CC2)n1-c1ccccc1	5.6	-9	14	10	0	3464	-7
